Assay outcomes: PubChem, several laboratories
Yeast UUG start = modulators of start codon recognition fidelity in yeast; S. cerevisiae UUG-firefly luciferase reporter, luminescence/redox ratio; activity score, % at 18.7 µM; 0.13% of 350,000 active;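 active = replicate mean at a twofold rise or more, about +100% in these data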;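 note: firefly luciferase made from a UUG start codon reports start codon fidelity; reporter light over untreated wells divided by growth signal over untreated wells; some hits fall short of that in this replicate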
PABP FP inh = blocks human PABP binding to poly(A) RNA; inhibition, % at 35 µM; P11940; 1% of 290,000 active; fluorescence polarization; AID 2014;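 active = 50% or more with normal probe brightness, or confirmed in later tests; inconclusive = above 50% with abnormal brightness, or retests that disagree; inactive = below 50% or failed in later tests; about a fifth of its hits are not listed in these tables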;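 note: calls also rest on retests at 20 µM and on dose response follow-up; controls were probe without protein and protein plus probe with vehicle; some compounds called inactive have numbers as strong as hits; many hits fall short of the cut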
Target sequence (P11940 whole entry, looked up): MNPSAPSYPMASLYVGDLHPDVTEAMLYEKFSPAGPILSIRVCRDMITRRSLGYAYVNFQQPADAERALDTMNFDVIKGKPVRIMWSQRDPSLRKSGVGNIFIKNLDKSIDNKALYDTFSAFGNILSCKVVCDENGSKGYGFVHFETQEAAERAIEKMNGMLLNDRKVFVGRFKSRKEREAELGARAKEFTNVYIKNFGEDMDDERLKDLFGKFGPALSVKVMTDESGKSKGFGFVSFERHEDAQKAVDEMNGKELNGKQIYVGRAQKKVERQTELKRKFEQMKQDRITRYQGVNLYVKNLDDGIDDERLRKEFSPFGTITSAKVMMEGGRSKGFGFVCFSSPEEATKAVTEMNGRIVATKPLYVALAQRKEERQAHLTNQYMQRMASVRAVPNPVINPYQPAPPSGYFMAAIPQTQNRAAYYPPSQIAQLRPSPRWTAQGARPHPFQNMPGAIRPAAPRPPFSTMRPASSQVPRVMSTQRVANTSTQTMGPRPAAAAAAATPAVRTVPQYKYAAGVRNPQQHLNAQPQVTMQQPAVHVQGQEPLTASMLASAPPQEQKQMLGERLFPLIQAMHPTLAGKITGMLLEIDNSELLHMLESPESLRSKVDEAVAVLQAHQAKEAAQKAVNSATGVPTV
HIV Env fusion = blocks HIV Env-driven cell-cell fusion; inhibition, % at 12.3 µM; HeLa-JRFL Env/CEM21 cell fusion, luciferase; AID 651610; 1.1% of 360,000 active;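 active = mean replicate inhibition score of at least 50 and every replicate individually at or above 50; inconclusive = only one of the two criteria met; inactive = mean below 50 and not all replicates reaching 50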;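 note: 0% = plate neutral controls and 100% = maraviroc near 300 nM; one replicate is shown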
eIF4H FP inh = inhibitors of RNA binding by human eIF4H. inhibition, % at 35 µM. 0.94% of 290,000 active. AID 2012. eIF4H fluorescence polarization binding assay. Q15056;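 active = 50% or more with normal probe brightness, or confirmed in later tests; inconclusive = above 50% with abnormal brightness, or retests that disagree; inactive = below 50% or failed in later tests; about a fifth of its hits are not listed in these tables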;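 note: calls also rest on retests at 20 µM and on dose response follow-up; 0% = protein and probe with vehicle and 100% = probe without protein; strong numbers were not always called active; many hits fall short of the cut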
Rce1 inh = yeast Ras-converting enzyme inhibition; calls only; yeast membranes, quenched prenylated peptide cleavage fluorescence; Q03530; 0.27% of 290,000 active; AID 2563;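 active = fall in fluorescence gain of 50% or more versus controls, with final raw signal at or below 3038400; inconclusive = same 50% fall but final raw signal above 3038400; inactive = fall in fluorescence gain under 50%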;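 note: plate controls were neutral control wells for no effect and wells lacking membranes for full effect; tested at 10 µM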
Target sequence (Q03530 whole entry, looked up): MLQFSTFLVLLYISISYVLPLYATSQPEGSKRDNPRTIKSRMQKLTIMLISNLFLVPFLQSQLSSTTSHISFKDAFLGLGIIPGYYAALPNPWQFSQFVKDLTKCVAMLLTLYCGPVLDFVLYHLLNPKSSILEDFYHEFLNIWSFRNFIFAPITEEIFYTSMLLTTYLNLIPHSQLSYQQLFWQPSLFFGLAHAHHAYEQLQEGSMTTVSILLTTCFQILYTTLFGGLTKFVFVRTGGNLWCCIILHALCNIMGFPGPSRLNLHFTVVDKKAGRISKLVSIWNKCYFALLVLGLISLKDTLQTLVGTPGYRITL
CSC inhib = blocks cancer stem cells; inhibition, % at 7.5 µM; 1.1% of 300,000 active; cancer stem cell-like cells viability, luminescence;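 active = mean at 75% or more and at least half the replicates too; inconclusive = mean and replicates disagree; tested in HMLE shEcad cells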;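 note: 0% = median of negative and 100% = median of positive control wells; the first replicate is given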
MT1-MMP act inh = blocks activation of human MT1-MMP. HT1080 RFP-PRO-GFP cells, GFP/RFP ratio fluorescence, overnight; percent of plate control window, DMSO zero. 0.061% of 360,000 active. AID 651647. P50281. GFP/RFP ratio change, % at 20 µM;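 active = GFP/RFP ratio change of at least 30% with cell ATP level not reduced by more than half and red fluorescence within 50% of control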; note: strong numbers were not always called active
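Test system: HT1080 cells expressing an RFP-PRO-GFP fluorescent reporter construct / Compound dosing: single-point 20 µM compound, 1% DMSO / Schedule: cells overnight before dosing, compound overnight, 37 °C, 5% CO2 / Evaluation: GFP/RFP fluorescence ratio / Control set: DMSO and RFP-L50D-GFP cell wells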
MT1-MMP act inh RFP = also measured in MT1-MMP act inh; calls as there; RFP signal change, %; measured here: RFP expression control read;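 0 = vehicle wells; hits needed this value within 50% of zero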
* = called active by the depositor; i = inactive; ? = inconclusive; . = no result given. The list is partial. The share of hits here may be higher or lower than overall.

SMILES	Yeast UUG start	PABP FP inh	HIV Env fusion	eIF4H FP inh	Rce1 inh	CSC inhib	MT1-MMP act inh	MT1-MMP act inh RFP
COC(=O)c1ccccc1NC(=O)N1CCN(C/C=C/c2ccccc2)CC1	.	-11	1	-7	i	.	-1	1
C[C@H]1NC(=O)[C@@]2(C)[C@@H](c3ccccc3)[C@H]3COc4ccccc4[C@@H]3N2C1=O	-4	.	-12	.	.	-2	-6	-1
CCCCCOC(=O)C1=C(C)NC(=O)NC1c1ccccc1 (centres undefined)	-1	-9	17	-6	i	.	2	-4
CCOC(=O)CS(=O)(=O)CC(=O)Nc1ccc([N+](=O)[O-])cc1OC	-19	6	-12	2	i	-1	-3	-3
O=C1CCCN1c1cccc(Br)c1	-3	-1	-43	3	i	-10	-3	-4
CC(C)(C)OC(=O)[C@H](CCCCN)NC(=O)c1nc[nH]c1C(=O)NCCCCCN	-10	.	3	.	i	-4	3	2
O=C1CC(C2CCCO2)C(=O)N1c1ccccc1 (centres undefined)	-12	6	.	-1	i	2	0	5
O=C(NCCc1ccccc1)C(=Cc1ccc(C(=O)O)cc1)C(=O)NCCc1ccccc1	20	-10	9	-2	i	-9	-1	-1
Cc1cc(N)n(-c2ccc(C(=O)O)cc2)n1	-1	15	-6	-1	i	-10	8	9
CN1C(C(=O)NCc2ccco2)CC2Cn3c(nc4cc(Cl)c(Cl)cc43)C21 (centres undefined)	1	4	-2	-4	i	0	-3	-2
COc1ccc(S(=O)(=O)Nc2cc3c4c(c2)CC(=O)N4CCC3)cc1	-11	.	.	.	i	2	2	-2
CCOc1ccc(NC(=O)c2ccc(NC(=O)c3cn4c5c(c(N6CCN(C)CC6)c(F)cc5c3=O)OCC4C)cc2)cc1 (centres undefined)	.	7	15	2	i	54	3	1
COc1ccccc1N1CCN(CCCNC(=O)Cn2ncc3c([nH]c4ccccc43)c2=O)CC1	-4	-12	3	-10	i	9	2	-1
CCNC(=O)c1ccc(OCC(=O)Nc2ccc(F)cc2)c(OC)c1	.	7	4	-6	i	1	0	-1
CCCNC(=O)c1nn2cc(Br)cnc2c1Cl	-17	0	-3	-6	i	-8	-3	0
CNC(=O)c1csc(-c2ccccc2)n1	-15	-6	-43	-11	i	8	5	1
CCOC(=O)c1nnn(-c2ccc([N+](=O)[O-])cc2)c1C	.	40	3	0	.	-8	1	1
COCC(=O)NC1CCN(CC(=O)Nc2ccc(OC)cc2[N+](=O)[O-])CC1	-5	3	-10	7	i	-10	2	-4
Clc1ccc(-c2nnc(C3CC3)o2)cc1	.	12	-17	-3	i	-3	-4	-5
CC(C)[C@H](NC(=O)c1ccccc1F)C(=O)NC1CCCCC1	-1	.	.	.	.	-15	-1	2
CSc1ccc(NC(=O)C2(C)CCN2C(=O)c2sccc2C)cc1 (centres undefined)	-20	.	-16	.	.	.	0	-3
CCC(Sc1nc(=O)cc(N)n1-c1ccccc1)C(=O)Nc1cc(C)on1 (centres undefined)	-9	-7	.	6	i	-8	-2	-1
Cc1cc(-n2c(=O)c(C#N)cc3c(=O)n4cccc(C)c4nc32)no1	-3	17	-95	2	i	-9	0	7
O=C(c1cccc(F)c1)N1CCN(C(=O)c2cc3ncc(Br)cn3n2)CC1	-7	20	-33	30	i	-9	3	1
Clc1ccc(NNc2ccnc3cc(Cl)ccc23)cc1	-10	5	31	-7	i	22	6	7
O=C(CC(Nc1ccc(F)cc1)C(=O)OCC(=O)c1cccs1)c1ccccc1 (centres undefined)	-8	-2	-22	-3	i	13	12	1
COc1cc(/C=C/C(=O)OCC(=O)NCC2CCCO2)ccc1OCC#N (centres undefined)	-6	0	9	-7	i	-5	6	12
Nc1cc2c3c(cccc3c1)C(=O)N(CCN1CCCC1)C2=O	-9	77*	-57	114*	i	36	-28	11
COc1cccc(C(NC(C)=O)c2nc(-c3ccc(C)c(C)c3)cs2)c1 (centres undefined)	-10	.	13	.	.	.	1	0
CCn1c2ccccc2c2cc(NC(=O)CSc3nnc(-c4cccc(OC)c4)n3N)ccc21	-14	-16	135*	6	i	-6	1	-5
CC#CCN1c2ccccc2[C@]23C[C@@H](C(=O)OC)N(C(=O)NC4CCCCC4)C2=NC(C(=O)OC)=C(C(=O)OC)[C@H]13	2	.	3	.	i	-12	1	-1
CC1=CC(C)(C)N(C(=O)CSc2nnc(-c3ccc(C)cc3)o2)c2ccc(C)cc21	.	3	.	1	i	.	-13	-15
CCOc1ccc(NC(=O)COC(=O)Cc2ccsc2)cc1	-12	.	.	.	.	-6	2	1
CCOC(=O)c1ccc(-n2cncn2)nc1	-12	-11	-39	-2	i	-15	1	1
Cc1sc2nc(CSCC(=O)Nc3ccccc3C#N)[nH]c(=O)c2c1C	7	20	-9	15	i	-8	-7	2
CSc1ccccc1NC(=O)CN(C)C(C)C(=O)Nc1ccc(C#N)cc1 (centres undefined)	4	-3	20	-10	i	5	3	0
COc1cc(-n2c(C)nc3cccnc32)c(Cl)cc1C(=O)O	-5	14	39	-1	i	-8	3	4
CCCc1cc(=O)[nH]c(SCC(=O)N2CCN(S(=O)(=O)c3ccc(C)cc3C)CC2)n1	-13	-1	6	0	i	1	2	3
Cc1cc(Cl)ccc1OCc1cn2cccnc2n1	.	13	-34	9	i	-16	-2	-2
C[C@H](O)[C@@H]1C(=O)N2CCc3ccc(N4CCN(C)CC4)cc3[C@@H]2C[C@@H]1N(C)C(=O)c1cccnc1	-23	.	?	.	.	.	0	2
Cc1cc(NCc2ccccn2)n2ncc(-c3ccccc3)c2n1	-34	-8	-112	-2	i	-12	3	-13
CCCCc1cc(=O)oc2cc(C)cc(OCC(=O)N[C@@H](CSCc3ccccc3)C(=O)O)c12	-17	4	.	-2	i	-12	4	5
COC(=O)c1ccc(NC(=O)CSc2nnc(C)n2-c2ccccc2)cc1	.	0	-3	-4	i	.	-2	3
CC(NC(=O)c1ccc(Br)s1)c1ccncc1 (centres undefined)	.	-7	13	-1	i	-4	6	10
CCN1C(=O)CS/C1=C(\C#N)S(=O)(=O)c1ccccc1	-17	16	.	17	i	.	31	53
CCN(CC)c1ccc(N)cc1S(=O)(=O)Nc1ccccc1OC	-10	8	10	0	i	-2	1	3
O=C(CCOc1ccccc1)Nc1ccnn1C1CCN(C(=O)CCC(F)(F)F)CC1	14	.	-17	.	i	-2	1	6
COC(=O)c1ccccc1NS(=O)(=O)c1ccc2c3c(cccc13)C(=O)N2	-10	3	16	-5	i	18	0	-10
O=C(Nc1ccc2c(c1)OCO2)C1CCCN(S(=O)(=O)c2cccs2)C1 (centres undefined)	3	3	.	-4	i	12	-2	-5
Cc1ccc(-c2nc3ccccc3[nH]2)cc1NC(=O)/C=C/c1ccco1	-14	1	-17	9	i	-6	6	3
Cc1ccc(-c2nnn(CC(=O)NC3CCCc4ccccc43)n2)cc1 (centres undefined)	-16	-8	-33	-9	i	-7	4	6
NC(=O)c1ccsc1NC(=O)CSc1nnc2ccccn12	2	-15	-7	24	i	-11	-9	-6
O=c1[nH]c(Sc2ccc([N+](=O)[O-])cc2[N+](=O)[O-])nc2ccccc12	-16	.	11	.	i	61	5	-4
O=C1NC(c2ccc(-c3ccccc3[N+](=O)[O-])o2)C(C(=O)c2ccccc2)C(O)(C(F)(F)F)N1 (centres undefined)	.	-1	-180	0	i	-4	1	-3
CCOC(=O)CCCOC(=O)c1ccc(S(=O)(=O)N(C)C)cc1	-3	8	-82	3	i	6	2	2
Cc1cc(C)c(O)c(-c2cc(C(=O)NCc3ccccc3)[nH]n2)c1	-13	7	.	-2	i	-20	-3	-4
CC(=O)c1cccc(Nc2ccc(-c3ccccc3F)nn2)c1	.	-7	-47	0	i	13	1	4
CC(C)OCc1c(C(=O)OC/C(O)=C(\C#N)c2nc3ccccc3[nH]2)oc2ccccc12	.	-8	16	12	i	-2	-3	4
Cc1nn(CC(=O)c2ccc3c(c2)OCCO3)c(=O)c(C#N)c1C	-5	.	.	.	.	-17	0	5
CCC(=NCCc1c(C)[nH]c2ccc(C)cc12)C1=C(O)CC(c2ccccc2)CC1=O (centres undefined)	.	3	-5	6	i	72	3	-17

Next section.
SMILES	Yeast UUG start	PABP FP inh	HIV Env fusion	eIF4H FP inh	Rce1 inh	CSC inhib	MT1-MMP act inh	MT1-MMP act inh RFP
CCO[C@@H]1OC(C(=O)NCc2nc3ccccc3[nH]2)=C[C@H](C(C)(C)C)[C@H]1CCCO	-8	.	-141	.	i	-5	29	6
CC(/C=C/c1ccccc1)=N\NC(=O)c1ccc2c(c1)OCCO2	.	-4	-13	9	i	2	5	8
CCc1nn(C(CC)C(=O)NCCCN2CC(C)CC(C)C2)c(=O)c2cc3oc(C)cc3n12 (centres undefined)	-21	-1	-11	-14	i	-4	-6	-5
O=C(NC1CCCC1)C(=O)N(Cc1cccnc1)C(C(=O)NCC1CCCO1)c1ccco1 (centres undefined)	.	-4	11	2	i	-8	-2	2

In the list so far, these have fluorine:
SMILES	Yeast UUG start	PABP FP inh	HIV Env fusion	eIF4H FP inh	Rce1 inh	CSC inhib	MT1-MMP act inh	MT1-MMP act inh RFP
CCOc1ccc(NC(=O)c2ccc(NC(=O)c3cn4c5c(c(N6CCN(C)CC6)c(F)cc5c3=O)OCC4C)cc2)cc1 (centres undefined)	.	7	15	2	i	54	3	1
CCNC(=O)c1ccc(OCC(=O)Nc2ccc(F)cc2)c(OC)c1	.	7	4	-6	i	1	0	-1
CC(C)[C@H](NC(=O)c1ccccc1F)C(=O)NC1CCCCC1	-1	.	.	.	.	-15	-1	2
O=C(c1cccc(F)c1)N1CCN(C(=O)c2cc3ncc(Br)cn3n2)CC1	-7	20	-33	30	i	-9	3	1
O=C(CC(Nc1ccc(F)cc1)C(=O)OCC(=O)c1cccs1)c1ccccc1 (centres undefined)	-8	-2	-22	-3	i	13	12	1
O=C(CCOc1ccccc1)Nc1ccnn1C1CCN(C(=O)CCC(F)(F)F)CC1	14	.	-17	.	i	-2	1	6
O=C1NC(c2ccc(-c3ccccc3[N+](=O)[O-])o2)C(C(=O)c2ccccc2)C(O)(C(F)(F)F)N1 (centres undefined)	.	-1	-180	0	i	-4	1	-3
CC(=O)c1cccc(Nc2ccc(-c3ccccc3F)nn2)c1	.	-7	-47	0	i	13	1	4
